High-throughput results (PubChem BioAssay)
FGF22 binding: FGF22 (human) thermal shift binding | Q9HCT0 | recombinant FGF22 thermal shift, SYPRO orange fluorescence; percent of sucrose octasulfate shift, DMSO zero | calls only at 9.99 µM | hit rate 1.5% among 340,000;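 active = melting point raised past a set limit in the mean and every replicate; inconclusive = no clear call; three in four hits are not shown here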
Target sequence (Q9HCT0 whole entry, looked up): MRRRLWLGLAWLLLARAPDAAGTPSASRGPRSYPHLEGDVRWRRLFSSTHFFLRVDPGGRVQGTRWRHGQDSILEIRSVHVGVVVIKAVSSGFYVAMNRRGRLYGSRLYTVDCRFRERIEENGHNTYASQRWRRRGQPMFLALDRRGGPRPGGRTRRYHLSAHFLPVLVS
HNF4A DNA FP: change in binding of human HNF4 alpha to DNA; HNF4a-FITC DNA binding, fluorescence polarization, 1 h; hit rate 0.3% among 360,000; AID 1224865; activity change, % at 10 µM; P41235; in the data active = activity change above about 30%, passing the limit was not always enough;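 note: controls were the assay level and a saturating level of protein; the project sought stronger binding though the title names inhibitors; some compounds called inactive have numbers as strong as hits; positive values seem to mean higher polarization but the record does not say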
E coli growth: E. coli growth inhibition | AID 1053175 | hit rate 0.21% among 330,000 | OD600 absorbance (test concentration not listed) | Escherichia coli growth, OD600, 23 h; active compounds read low;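 active = OD600 absorbance below the run mean of sample wells minus 3.6 SD, in any replicate, cut at about 0.56 in these data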;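 note: stock transfer was 300 nL into about 60 µL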
Vif A3G: HIV-1 Vif–A3G interaction blockers – biochemical, TR-FRET, GST-Vif 1-94, biotin-A3G peptide, dose response retest, primary screen (AID 1117319) | one-dose inhibition, %; IC50 in µM for titrated hits | hit rate 0.57% among 260,000 | TR-FRET GST-Vif / biotin-A3G peptide binding; higher % means a stronger effect; test concentration not given here; strong numbers were not always called active;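 active = above the screen mean plus three standard deviations and confirmed in dose response; inconclusive = results disagree or hit not tested in dose response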;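 note: Vif residues 1-94 fused to GST binding biotinylated APOBEC3G peptide 110-148; 0% = full assay without inhibitor and 100% = GST in place of GST-Vif; retest series ran down from 100 µM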
Ecoli rRNA inh: inhibitors of bacterial rRNA selective over humanized ribosomes | GFP signal change (wild-type ribosome), % (test concentration not listed) | hit rate 1.6% among 350,000 | E. coli WT GFP vs humanized-ribosome RFP mutants, fluorescence, 24 h; active compounds read low; DMSO median 0, no signal -100 | AID 720706;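 active = significant combined selectivity score with lowered wild-type GFP, culture density cut under 30%, mutant RFP and density less affected; inactive = any of these conditions unmet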; note: one replicate is shown; some compounds called inactive have numbers as strong as hits
ALR inh: blocks human ALR sulfhydryl oxidase activity. P55789. purified ALR, DTT oxidation, H2O2 HRP-luminol luminescence. inhibition, % (concentration not given with the values). hit rate 3.8% among 290,000;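 active = mean and each replicate at 75% or more; inconclusive = only one of the two met; inactive = neither met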;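 note: stock transfer was 7.5 nL into about 7.5 µL; 0% = neutral wells and 100% = wells with inactivated enzyme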
Target sequence (P55789 whole entry, looked up): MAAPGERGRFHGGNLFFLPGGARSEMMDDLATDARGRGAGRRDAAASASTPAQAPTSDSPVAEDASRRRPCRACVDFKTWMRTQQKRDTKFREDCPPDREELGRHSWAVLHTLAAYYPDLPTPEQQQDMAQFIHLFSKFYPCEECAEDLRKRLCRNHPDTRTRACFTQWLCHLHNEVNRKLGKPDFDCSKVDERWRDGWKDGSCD
AF4-AF9 inh: MLL-AF4/AF9 protein interaction inhibition | P42568 | AlphaScreen, biotin-AF4 peptide binding to FLAG-AF9 | inhibition, % at 10 µM | hit rate 0.47% among 350,000 | AID 651704;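 active = every replicate reaching a set inhibition limit, whatever the replicate mean, cut at about 25% in these data; inconclusive = mean inhibition reaches that limit but some replicates miss it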;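 note: 0% = plate neutral control median and 100% = total signal loss; the record names both 10 and 1 µM as test concentration; the first replicate is given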
Target sequence (P42568 whole entry, looked up): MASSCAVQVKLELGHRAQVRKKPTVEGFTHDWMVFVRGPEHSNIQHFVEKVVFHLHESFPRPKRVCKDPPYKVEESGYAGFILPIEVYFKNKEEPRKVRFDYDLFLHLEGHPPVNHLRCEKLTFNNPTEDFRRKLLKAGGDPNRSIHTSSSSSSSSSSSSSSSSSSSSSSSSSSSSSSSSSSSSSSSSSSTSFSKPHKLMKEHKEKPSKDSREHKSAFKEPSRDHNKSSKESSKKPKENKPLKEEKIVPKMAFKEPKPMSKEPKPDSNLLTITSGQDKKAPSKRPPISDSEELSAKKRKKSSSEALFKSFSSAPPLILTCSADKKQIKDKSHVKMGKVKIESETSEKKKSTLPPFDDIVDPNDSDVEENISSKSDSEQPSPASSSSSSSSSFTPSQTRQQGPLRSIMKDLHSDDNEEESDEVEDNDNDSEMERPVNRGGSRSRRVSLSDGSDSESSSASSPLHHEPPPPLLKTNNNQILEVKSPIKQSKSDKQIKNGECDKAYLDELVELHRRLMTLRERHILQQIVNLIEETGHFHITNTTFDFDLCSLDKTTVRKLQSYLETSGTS
Ecoli rRNA inh OD600: second read-out of Ecoli rRNA inh, no call of its own (marks repeat the call); OD600 change, %; measured here: OD600 growth;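 optical density of the mix in the first replicate; 0 = DMSO median and -100 = no signal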
Ecoli rRNA inh RFP: second read-out of Ecoli rRNA inh, no call of its own (marks repeat the call); RFP signal change, %; measured here: RFP humanized mutant strains;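 first replicate; 0 = DMSO median and -100 = no signal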
An asterisk follows results filed as active; i = inactive; ? = inconclusive; nt = no result given; & = joins results of further samples. This is a subset; the hit share may differ from the screen's.

SMILES	FGF22 binding	HNF4A DNA FP	E coli growth	Vif A3G	Ecoli rRNA inh	Ecoli rRNA inh OD600	Ecoli rRNA inh RFP	ALR inh	AF4-AF9 inh
COC(=O)[C@H](Cc1ccccc1)NC(=O)N1CCN(c2ccccc2)CC1	i	-0.1	0.67	7%	1	-1	-0.1	85*	nt
COc1ccc(NC(=O)C(NS(=O)(=O)c2ccc3c(c2)CCCN3C(C)=O)C(C)C)c(OC)c1 (centres undefined)	nt	1.7	0.64	0%&3%	nt	nt	nt	nt	nt
Cn1/c(=N/NC(=O)c2ccccc2F)sc2ccccc21	nt	-1.0	nt	nt	2	-1	-3.0	5	2.1
Cc1[nH]c2ccc(-c3nnc(SCC(=O)c4ccccc4F)o3)cc2c1C	nt	8.8	0.67	2%	nt	nt	nt	-5	nt
Cc1ccc(N(CC(=O)NC2CCCCC2)C(=O)CNC(=O)c2ccco2)cc1F	i	1.2	0.72	-3%	0	0	-0.3	nt	2.7
COC(=O)c1scc(C)c1NC(=O)Cc1ccccc1	nt	-5.0	0.72	17%	nt	nt	nt	-6	nt
Cc1ccc(NC(=O)c2ccccc2)cc1OC(=O)c1ccccc1	i	-2.5	0.66	1%	-7	-4	-2.2	nt	-1.5
COCCNC(=O)C1(C)CCCN(C(=O)Cc2ccc3ccccc3c2)C1 (centres undefined)	i	1.7	nt	nt	21	20	1.3	nt	-1.3
COc1ccc(/C=N\NC(=O)c2c(C)nc3ccc(Br)cn23)cc1	nt	4.0	nt	0%	nt	nt	nt	-17	nt
COc1cc(C(C[N+](=O)[O-])c2c(C)[nH]c3ccccc23)cc(OC)c1OC (centres undefined)	nt	5.2	0.72	-7%	nt	nt	nt	5	nt
COC(=O)c1cc(OCC(=O)NC2CCCc3ccccc32)cc(C(=O)OC)c1 (centres undefined)	i	1.4	0.68	nt	7	12	-0.7	1	-0.4
O=C(NCCCn1ccnc1)Nc1cccc(Cl)c1	nt	-6.1	0.73	-3%	nt	nt	nt	-1	nt
C[C@@H]1CN([C@H](C)CO)C(=O)c2cc(NC(=O)Nc3ccc(C(F)(F)F)cc3)ccc2O[C@@H]1CN(C)Cc1ccc(C(=O)Nc2ccccc2N)cc1	i	nt	nt	nt	-7	-18	4.4	nt	-1.8
COC(=O)c1sccc1NC(=O)CSc1cc(Cl)ccc1Cl	nt	3.2	0.73	7%	nt	nt	nt	nt	nt
COc1ccc(C(C)=O)cc1CN1C(=O)C(Cc2ccccc2)ON=C1c1ncccc1C (centres undefined)	i	-0.6	nt	nt	-12	-10	-5.2	nt	4.8
CCNc1oc(/C=C/c2ccc(OCC)cc2)nc1C#N	i	-1.4	0.7	nt	-18	-21	-3.7	3	2.9
C[C@@H]1CCCCO[C@@H](CN(C)C(=O)c2ccccc2)[C@@H](C)CN([C@H](C)CO)C(=O)c2cc(NS(=O)(=O)c3cccs3)ccc2O1	i	nt	nt	nt	-1	0	0.1	nt	1.0
CCOC(=O)N1CCN(c2nc(-c3ccco3)cc(C(F)(F)F)n2)CC1	nt	-0.3	0.69	11%	nt	nt	nt	3	nt
C=CCN1C(=O)/C(=C\c2ccc(Cl)cc2)N=C1SCC(=O)NC1CCCCC1	nt	0.5	nt	3%	nt	nt	nt	2	nt
CCOC(=O)N1CCN(c2ccc(C(C)=O)cc2F)CC1	nt	-0.8	0.7	9%	nt	nt	nt	-3	nt
CC1Cc2ccccc2N1C(=O)COC(=O)Cn1cnc2ccccc2c1=O (centres undefined)	nt	3.8	0.69	1%	nt	nt	nt	-2	nt
Cc1cccc(-n2nnnc2SCC(=O)N(CC(C)C)c2c(N)n(CC(C)C)c(=O)[nH]c2=O)c1	i	0.1	0.71	28%	3	5	-2.7	-12	3.6
Cc1cccc(N2CCN(C(=S)c3ccc4c(c3)OCO4)CC2)c1	i	3.5	0.69	1%	-12	-16	0.0	nt	0.4
CN1CCN(C(=O)C[C@H]2CC[C@H]3[C@@H](COC[C@H](O)CN3S(=O)(=O)c3cccc(Cl)c3)O2)CC1	i	nt	nt	nt	-3	3	1.3	nt	-3.5
CC(C)NC(=O)N(C)C[C@@H]1Oc2ccc(NC(=O)Nc3ccc(C(F)(F)F)cc3)cc2C(=O)N([C@@H](C)CO)C[C@@H]1C	i	nt	nt	nt	-3	-17	0.8	nt	1.0
Cc1cc(-c2ccccc2)nc(N(C)NC(=O)c2cccc(C(F)(F)F)c2)c1S(C)(=O)=O	nt	-0.3	0.79	0%	nt	nt	nt	-7	nt
CCc1ccccc1N(CC(=O)NC1CCCCC1)C(=O)CNC(=O)c1ccco1	i	-3.1	0.66	nt	-2	0	0.1	0	6.7
CC(C)(C)c1cnnn1-c1ccc(C=O)cc1	nt	-1.3	0.72	2%	nt	nt	nt	nt	nt
Cc1cccc(Cn2c(CN3CCN(Cc4ccccc4)CC3)nc3c2c(=O)[nH]c(=O)n3C)c1	i	3.0	0.73	3%	2	-2	-1.2	-33	-3.7
CC1=C(C(=O)OC(C)C)C(c2cccnc2)C2=C(CCCC2=O)N1 (centres undefined)	nt	1.6	0.69	-4%	nt	nt	nt	-7	nt
CN(C)CC(=O)N[C@H]1CC[C@@H](CCNC(=O)C2CCCC2)O[C@@H]1CO	i	nt	nt	nt	2	-1	-0.3	nt	-2.4
CC1CC1C(=O)N1CCN(S(=O)(=O)c2cc(C(F)(F)F)cc(C(F)(F)F)c2)CC1 (centres undefined)	i	-2.8	0.65	2%	-12	-30	6.8	19	-3.1
CN1CCN(C(=O)[C@@H]2[C@@H](CO)[C@@H]3Cn4c(ccc(-c5cccnc5)c4=O)[C@@H]3N2CC2CC2)CC1	i	nt	nt	nt	0	-6	-2.9	nt	-2.9
CCc1cccc(CN2CCC(CNC(=O)Nc3ccc(Cl)cc3)CC2)c1	i	1.2	0.69	0%	16	12	5.9	3	3.7
Cc1ccc(NC(=O)/C=C/c2cccs2)c([N+](=O)[O-])c1	nt	-0.7	0.68	-3%	nt	nt	nt	-5	nt
Cc1ccc(-c2nc3sc4c(c3c(=O)n2N)CC(C)(C)OC4)cc1	nt	2.2	0.73	12%	nt	nt	nt	-1	nt

Single values from the entries so far:
E coli growth result of `COC(=O)c1sccc1NC(=O)CSc1cc(Cl)ccc1Cl` → 0.73
AF4-AF9 inh result of `CN1CCN(C(=O)[C@@H]2[C@@H](CO)[C@@H]3Cn4c(ccc(-c5cccnc5)c4=O)[C@@H]3N2CC2CC2)CC1` → -2.9

Next results follow:
SMILES	FGF22 binding	HNF4A DNA FP	E coli growth	Vif A3G	Ecoli rRNA inh	Ecoli rRNA inh OD600	Ecoli rRNA inh RFP	ALR inh	AF4-AF9 inh
CCOC(=O)N1CCN(S(=O)(=O)c2cc(Cl)ccc2Cl)CC1	nt	1.0	0.76	30%	nt	nt	nt	-8	nt
Cc1ccc(CNC(=O)CCS(=O)(=O)Cc2ccc(C)cc2)cc1	i	2.1	0.7	-1%	10	13	3.8	0	-1.5
C[C@H]1CN([C@@H](C)CO)C(=O)Cc2cc(NS(=O)(=O)c3ccc(F)cc3)ccc2O[C@H]1CN(C)C(=O)Nc1ccc(C(F)(F)F)cc1	i	nt	nt	nt	2	-3	2.6	nt	-4.3
Cc1ccc(CNC(=O)C2CCCN(S(=O)(=O)c3c(C)n[nH]c3C)C2)cc1 (centres undefined)	i	-1.1	0.68	2%	-3	8	-3.0	2	-44
Cc1cccc(C)c1NC(=O)CN(C)CC(=O)Nc1ccccc1Oc1ccccc1	i	-3.0	0.68	-12%	-24	-33	-8.4	-1	0.7
COc1ccc(OCC(=O)N2N=C(C)CC2(O)C(F)(F)F)cc1 (centres undefined)	i	-1.8	0.72	-6%	4	10	3.3	nt	-0.5
CCC(=O)N1CCc2cc(OC)c(OC)cc2C1COc1ccc(OC)cc1 (centres undefined)	i	-2.1	0.7	8%	-7	4	0.1	-6	1.0
CN(CCC1CCOCC1)Cc1cn[nH]c1-c1ccc(-c2ccccc2)cc1	i	-2.4	0.68	4%	10	-1	1.2	nt	2.0
O=C(O)CC1(CC(=O)Nc2ccccc2Br)CCCC1	i	4.3	0.67	nt	8	0	2.8	1	-1.7
C[C@@H]1CN([C@H](C)CO)C(=O)c2cccc(NC(=O)c3ccncc3)c2O[C@H]1CN(C)Cc1ccc(C(=O)Nc2ccccc2N)cc1	i	nt	nt	nt	1	-8	1.4	nt	10
CCN(CC(=O)NCc1ccc(Cl)cc1)C(=O)CCC(=O)c1ccc(C)cc1	nt	-2.4	0.67	-3%	-6	-5	0.4	-2	0.0
CC(C)Cn1cc(C(=O)NCCCN2CCC(C)CC2)c2c3ccccc3n(C)c2c1=O	i	3.4	0.63	nt	-2	0	9.6	-10	-10
Cc1ccc2nc(NCc3ccco3)c(C=NCc3ccco3)c(=O)n2c1	nt	-1.0	0.68	?	nt	nt	nt	23	nt
CCOc1cc(CN2CCC(n3nccc3NC(=O)C3CC3)CC2)ccc1O	i	-0.8	0.72	2%	4	7	-1.1	16	1.9
CC(C)=N/N=C1\NC(=O)C(C)S1 (centres undefined)	i	-0.7	0.65	-2%	-3	-15	-3.0	1	-2.5
COCCN(C(=O)CSc1n[nH]c(-c2ccccc2)n1)c1c(N)n(CC(C)C)c(=O)[nH]c1=O	i	0.8	0.67	-3%	7	1	0.4	nt	5.0
Cc1[nH]c2ccccc2c1C(=O)CN1CCN(C/C=C/c2ccccc2)CC1	nt	-1.4	0.72	-2%	nt	nt	nt	-1	nt
CCN(CC)S(=O)(=O)c1ccc(/C=C/C(=O)Nc2ccc(F)cc2F)cc1	i	-2.1	0.72	1%	12	10	5.7	12	-1.9
Cc1ccc(C(=O)c2cccc(N)c2)cc1C	i	0.9	0.69	6%	11	8	45	1	-0.8
CCn1c2ccccc2c2cc(NC(=O)c3ccco3)ccc21	i	1.0	0.64	0%	-35*	-0.1*	-3.6*	-6	10
CCOC(=O)c1cnc(-n2cc(C)cn2)nc1Nc1ccccc1OC	nt	0.1	0.75	26%	nt	nt	nt	-8	nt
CCC(=O)OC1(C)C(=O)C2=COC(c3ccc(OC)cc3)=CC2=C(Br)C1=O (centres undefined)	i	-5.4	nt	?	4	14	15	-2	-7.9
Cc1ccc(OCc2nc3ccccc3n2C(C(=O)NC(C)(C)C)c2ccncc2)cc1 (centres undefined)	i	-1.5	nt	nt	-1	-6	0.2	nt	-2.6
CCCNC(=O)C1(C)CCCN(Cc2cccs2)C1 (centres undefined)	i	8.1	nt	nt	11	13	-1.0	nt	9.4
CCOc1ccc2[nH]c(=O)c(C(c3nnnn3Cc3ccco3)N3CCCC(C)C3)cc2c1 (centres undefined)	nt	-1.5	0.72	?	nt	nt	nt	-6	nt
Cc1cc(C)cc(N2C(=O)CC(Sc3nnnn3-c3ccccc3)C2=O)c1 (centres undefined)	i	-0.1	0.65	-9%	1	4	3.7	9	12
COCC#Cc1ccc([C@@H]2[C@H]3CN(Cc4cncnc4)CCCCN3[C@H]2CO)cc1	i	nt	nt	nt	6	11	1.9	nt	-4.0
C[C@@H]1CN([C@H](C)CO)C(=O)c2cc(N(C)C)ccc2O[C@@H](C)CCCCO[C@H]1CN(C)C(=O)CCC(F)(F)F	i	nt	nt	nt	4	6	1.6	nt	2.7
COc1ccccc1NC(=O)CCn1c(=O)sc2ccccc21	i	4.5	0.7	9%	-15	-6	-0.7	-1	6.8
C[C@@H]1CN([C@H](C)CO)C(=O)Cc2cc(NS(=O)(=O)c3ccc(F)cc3)ccc2O[C@H]1CN(C)C(=O)Nc1ccccc1	i	nt	nt	nt	1	1	0.5	nt	-1.5
